KCNQ2 inh: KCNQ2 potassium channel inhibitors, primary screen, cell-based, CHO-K1, FluxOR thallium flux, B-score (AID 2156) | O88943 | 20 min; hits give low values; only compounds with negative scores are shown here; some inactives read as strong as hits | B-score at 10 µM | 310,000 compounds, 1.1% hits;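 active = fluorescence ratio B-score at most minus 3 library SDs, with starting brightness B-score within 2 library SDs, cut at about -5.5 in these data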
Target sequence (O88943 whole entry, looked up): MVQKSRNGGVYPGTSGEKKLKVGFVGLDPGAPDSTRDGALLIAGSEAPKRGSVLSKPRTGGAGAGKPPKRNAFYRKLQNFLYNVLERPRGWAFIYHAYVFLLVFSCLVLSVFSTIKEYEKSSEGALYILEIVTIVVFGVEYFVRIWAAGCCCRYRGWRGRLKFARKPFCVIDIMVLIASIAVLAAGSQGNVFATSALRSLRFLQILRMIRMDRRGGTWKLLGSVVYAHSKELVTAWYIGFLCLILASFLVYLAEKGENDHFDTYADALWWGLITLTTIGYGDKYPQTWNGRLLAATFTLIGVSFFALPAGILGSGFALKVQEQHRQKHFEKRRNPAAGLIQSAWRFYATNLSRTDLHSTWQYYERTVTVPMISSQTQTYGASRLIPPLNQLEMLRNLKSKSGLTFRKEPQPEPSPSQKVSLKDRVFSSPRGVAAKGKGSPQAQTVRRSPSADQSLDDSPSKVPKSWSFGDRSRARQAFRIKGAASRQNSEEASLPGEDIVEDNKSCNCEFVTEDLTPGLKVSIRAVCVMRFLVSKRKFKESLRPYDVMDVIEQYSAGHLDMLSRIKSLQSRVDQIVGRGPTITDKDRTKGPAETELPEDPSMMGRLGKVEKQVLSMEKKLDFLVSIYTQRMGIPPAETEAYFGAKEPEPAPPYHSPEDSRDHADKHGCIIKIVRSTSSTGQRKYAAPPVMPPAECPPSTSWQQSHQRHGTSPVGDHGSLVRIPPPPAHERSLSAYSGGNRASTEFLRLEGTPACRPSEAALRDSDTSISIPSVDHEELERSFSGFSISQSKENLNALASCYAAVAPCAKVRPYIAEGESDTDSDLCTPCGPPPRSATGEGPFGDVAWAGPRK
KCNQ2 inh baseline: further read-out of KCNQ2 inh, marked with its call; B-score; measured here: initial fluorescence intensity artifact check;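 brightness before thallium and not channel activity; 0 = typical well and far values either way flag optical interference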
The depositor's hits bear a star; i = inactive. This is a subset; rates above refer to the full screens.

SMILES	KCNQ2 inh	KCNQ2 inh baseline
O=C1[C@@H]2Cc3c([nH]c4ccccc34)C(c3cccc([N+](=O)[O-])c3)N2C(=O)CN1C1CCN(Cc2ccccc2)CC1 (stereo partly specified)	i	1.6
Clc1ccc2[nH]c3c(N4CCC5(CC4)OCCO5)ncnc3c2c1	i	1.7
O=C(N1CCOCC1)N(CCN1CCOCC1)Cc1cccc(Cl)c1	i	0.25
Cc1ccc(C(=O)N/C(=C/c2ccc(-c3cccc([N+](=O)[O-])c3)o2)C(=O)NC(C)C)cc1	i	0.29
CCn1c(SCC(=O)N2c3ccccc3Sc3ccccc32)nc2c1c(=O)n(C)c(=O)n2C	i	0.09
CC(CNC(=O)CCCn1ncn2c(cc3occc32)c1=O)c1ccccc1 (stereo unspecified)	i	3.7
O=C(c1ccc(Cl)cc1)c1c[nH]c(C(=O)NNc2ccccc2)c1	i	-0.08
O=C(NCc1ccco1)c1ccc(S(=O)(=O)N2CCCCC2)cc1	i	3.2
CC1(C(=O)NC2CCCCC2)CCC(=O)N1Cc1cccs1 (stereo unspecified)	i	-0.42
Cc1c(Br)c([N+](=O)[O-])nn1CC(=O)NCc1cccnc1	i	1
O=C(NCCO)c1cccc(S(=O)(=O)N2CCCCC2)c1	i	-0.68
O=c1cc(-c2ccccc2)c2ccc(O)c(CN3CCCCC3)c2o1	i	0.28
O=C(CSc1nnc(-c2cccs2)o1)N1CCCc2ccccc21	i	2.1
Cc1ccc(CNC(=O)CCS(=O)(=O)c2ccc(C)cc2)cc1	i	-0.29
S=C1Nc2cc(Cl)ccc2Sc2ccccc21	i	0.86
O=C(COC(=O)CNC(=O)c1ccc2c(c1)OCO2)Nc1ncc(Cl)cc1Cl	i	-1.1
OCC[C@@H]1C[C@@H](O)[C@H](O)[C@]2(Cc3ccccc3CO2)O1	i	1.4
CC1=C(CC(=O)c2ccccc2)C(=O)c2ccccc2C1=O	i	-1.8
CCCC[n+]1ccn(C2=C([O-])c3ccccc3C(=O)/C2=N\S(=O)(=O)c2ccc(Br)cc2)c1	i	5.7
O=C(COC(=O)c1ccccc1-c1nc2ccccc2s1)Nc1ccccc1C(F)(F)F	i	0.56
O=C1N(c2ccccc2)C[C@@H]2C[C@@H](c3cc4ccccc4o3)N3CCC[C@@]123	i	0.47
COc1ccc(Nc2nc(N3CCOCC3)nc(N3CCOCC3)n2)c(OC)c1	i	0.46
C=CCN1C(=O)CSc2ccc(C(=O)NCc3ccco3)cc21	i	0.35
COc1ccc(C2N(c3ccccc3)CCN2c2ccccc2)cc1O	i	1.6
N#CC(C(=O)NC1CC1)c1nc2ccccc2nc1N1CCCC1 (stereo unspecified)	i	-0.25
CCOCCCNC(=O)C(NC(=O)c1ccc(=O)[nH]c1)c1ccc(C)cc1 (stereo unspecified)	i	0.58
CCN(C(=O)c1cc2c(=O)n3ccccc3nc2s1)C1CCCCC1	i	-2.5
CCOC(=O)c1cc(NC(=O)c2ccc(C)cc2)c(=O)oc1-c1ccccc1	i	-0.23
COc1ccc(S(=O)(=O)Nc2ccccc2C(=O)N2CCCCC2)cc1C	i	2.2
CCC(C(=O)Nc1cccc(C(F)(F)F)c1)c1ccccc1 (stereo unspecified)	i	-0.47

One compound at a time, from the list above. Values in the order: KCNQ2 inh | KCNQ2 inh baseline
Cc1ccc(C(=O)N/C(=C/c2ccc(-c3cccc([N+](=O)[O-])c3)o2)C(=O)NC(C)C)cc1 in the list: i | 0.29
O=C(c1ccc(Cl)cc1)c1c[nH]c(C(=O)NNc2ccccc2)c1 in the list: i | -0.08
CC(CNC(=O)CCCn1ncn2c(cc3occc32)c1=O)c1ccccc1 (stereo unspecified) in the list: i | 3.7
COc1ccc(C2N(c3ccccc3)CCN2c2ccccc2)cc1O in the list: i | 1.6
CCOCCCNC(=O)C(NC(=O)c1ccc(=O)[nH]c1)c1ccc(C)cc1 (stereo unspecified) in the list: i | 0.58

Taken from above:
KCNQ2 inh baseline, CCOCCCNC(=O)C(NC(=O)c1ccc(=O)[nH]c1)c1ccc(C)cc1 (stereo unspecified) → 0.58
KCNQ2 inh baseline, O=C1N(c2ccccc2)C[C@@H]2C[C@@H](c3cc4ccccc4o3)N3CCC[C@@]123 → 0.47
KCNQ2 inh baseline, O=C(COC(=O)CNC(=O)c1ccc2c(c1)OCO2)Nc1ncc(Cl)cc1Cl → -1.1
KCNQ2 inh baseline, COc1ccc(C2N(c3ccccc3)CCN2c2ccccc2)cc1O → 1.6
KCNQ2 inh baseline, OCC[C@@H]1C[C@@H](O)[C@H](O)[C@]2(Cc3ccccc3CO2)O1 → 1.4
KCNQ2 inh baseline, CCCC[n+]1ccn(C2=C([O-])c3ccccc3C(=O)/C2=N\S(=O)(=O)c2ccc(Br)cc2)c1 → 5.7

Next part.
SMILES	KCNQ2 inh	KCNQ2 inh baseline
CC(=O)N1N=C(c2ccncc2)OC1(Cc1ccccc1)Cc1ccccc1	-7.5*	-0.55*
Cc1cc(C(=O)CSc2nn3c(=O)c(C(C)(C)C)nnc3s2)c(C)n1-c1ccc(F)cc1	i	1.5
Cc1c(O)ccc2cc(S(=O)(=O)c3ccccc3)c(=O)oc12	i	17
CCOC(=O)c1c(NC(=O)CN2C(=O)NC3(CCCCCC3)C2=O)sc(C)c1-c1ccc(C)cc1	i	1.7
CCn1c(-c2ccccc2Cl)nn(CC(=O)Nc2cc(Cl)ccc2Cl)c1=S	i	-0.67
Cc1ccc2[nH]c3c(=O)n(CC(=O)Nc4ccccc4N4CCN(C)CC4)ncc3c2c1	i	1.3
C#Cc1ccc([C@@H]2C=C(C(=O)OCC=C)O[C@H](OCc3ccc(CO)cc3)C2)cc1	i	0.3
COc1ccc2[nH]c(=O)c(COC(=O)c3cccs3)cc2c1	i	-0.05
CCn1ncc(Br)c1C(=O)Nc1c(C)nn(Cc2c(F)c(F)c(F)c(F)c2F)c1C	i	-0.3
COc1cc(OC)cc(-c2nnc(SCC(=O)N3CCCCC3)o2)c1	i	-0.12
N#Cc1c(C(F)(F)F)cc(-c2cccs2)nc1SCc1ccc(Cl)nc1	i	0.07
COc1nc(C)ccc1-c1noc(-c2ccccn2)n1	i	-0.5
CCC(=O)N1CCCN(S(=O)(=O)c2ccc(C)cc2)C1c1ccc(OC)cc1 (stereo unspecified)	i	-0.61
OCC1(Cc2ccc(F)cc2)CCCN(CCc2ccccc2)C1 (stereo unspecified)	i	0.3
COc1ccc(C(=O)/C=C(\C)NCc2ccc3c(c2)OCO3)cc1	i	-0.3
CCc1cccc(NS(=O)(=O)c2csc(C(N)=O)c2)c1	i	-0.72
CCCNC(=O)c1nc(C)c(C)nc1C(=O)Nc1cccc(Cl)c1	i	1.1
O=C(CN1CCN(Cc2ccccc2Cl)C1=O)NCc1cccnc1	i	-1.5
O=C(CCCCCn1c(=O)[nH]c2ccsc2c1=O)NCc1ccc(F)cc1	i	0.85
COc1ccccc1N=c1sc2ccccc2n1C	i	-0.16
CCOC(=O)c1[nH]c(C)c(C(=O)Nc2ccc(F)cc2)c1C	i	-0.06
COc1ccc(CC(=O)Nc2nc3ccccc3s2)cc1S(=O)(=O)N1CCOCC1	i	-0.67
C=CCn1c(Sc2nc(C)cs2)nc2c1c(=O)[nH]c(=O)n2C	i	-0.2
CCC(=O)Nc1ccccc1C(=O)OCC(=O)c1cccc2ccccc12	i	-0.01
C=CCn1c(SCc2ccc(C#N)cc2)nnc1-c1ccc(C)cc1	i	1.6
CCOC(=O)C1CCCN(C(=O)c2cnn3c(C(F)(F)F)cc(-c4ccccc4)nc23)C1 (stereo unspecified)	i	-1.2
COC(=O)c1ccc(-c2nc3ccc(C)cc3o2)cc1	i	0.05
Cc1nnsc1-c1onc(C)c1C(=O)Nc1cc(Cl)cc(Cl)c1	i	2.1
Cc1[nH]n(C(N)=S)c(=O)c1C(c1ccccc1)C(C#N)C#N (stereo unspecified)	i	0.55
COc1ccc(NC(=O)c2cc([N+](=O)[O-])ccc2NC(=O)CNC2CCCCC2C)c(OC)c1 (stereo unspecified)	i	0.11
S=c1[nH]nc(-c2ccccn2)n1/N=C/c1cccc2ccccc12	i	-0.01
COC(=O)c1sc2ncccc2c1OCc1ccc(Cl)cc1	i	0.12
CSc1ncccc1C(=O)NCCc1ccccc1	i	1.5
COc1ccc(CNC(=O)c2cc(=O)c3cc(C)ccc3o2)cc1	i	1.5
Cc1c(Cl)cccc1-n1c(SCC(=O)N(C)Cc2ccccc2)nnc1-c1ccncc1	i	0.07
COc1ccccc1/C=C/C(=O)OCC(=O)c1c(N)n(C)c(=O)n(C)c1=O	i	-0.13
C=CCn1c(N)c(C(=O)NC2CCCCC2)sc1=S	i	-1.2
Cn1c(C(=O)N2CCN(c3ccccc3)CC2)cc2cc(Cl)ccc21	i	-0.18
COc1ccc(-n2c(=S)[nH]c3cc(C(=O)NC4CCCCC4)ccc3c2=O)c(OC)c1	i	-0.19
Cc1ccc(-c2cc(C(=O)NCCN3CCOCC3)c3ccccc3n2)o1	i	0.75
O=C(CN1CCN(c2cccc(Cl)c2)CC1)NCc1ccccc1	i	1.5
Cc1nnc2sc(-c3ccncc3)nn12	i	1.3
CC(C)(C)N(NC(=O)Nc1ccccc1)C(=O)c1ccccc1	i	-0.1
CC1(C)Cc2sc3c(=O)[nH]c(=S)[nH]c3c2CO1	i	0.28
COC(=O)CSC1=NS(=O)(=O)c2ccccc21	-7.9*	-0.06*
CCC(=O)N1CCc2cc(S(=O)(=O)NCCN3CCC(C)CC3)ccc21	i	0.22
CC1=CC(=NOC(=O)c2cccc([N+](=O)[O-])c2)C=C(C)C1=O	i	2.9
COC(=O)[C@H](C)NC(=O)Nc1cccc(Br)c1	i	0.24
CCOc1ccc(NC(=S)N(CCc2c(C)[nH]c3ccc(C)cc23)Cc2ccncc2)cc1	i	0.94
COC(=O)c1ccc(Oc2c(C(F)(F)F)oc3c(CN4CCN(C)CC4)c(O)ccc3c2=O)cc1	i	1.9
COC(=O)c1sccc1NC(=O)CN(C)NS(=O)(=O)c1ccc([N+](=O)[O-])cc1	i	-1.8
O=C(NN=C1CCCCCC1)c1cccs1	i	0.12
CC(=O)N1c2ccc(S(=O)(=O)NCCC(=O)Nc3ccccc3C)cc2CC1C (stereo unspecified)	i	-0.03
NC(=O)CSC1=Nc2ccccc2C2=NC(c3ccccc3)C(=O)N12 (stereo unspecified)	i	-1.9
CCN(CC)CCCNC(=O)c1cn(C)c(=O)c2c1c1ccccc1n2C	i	0.24
CC1(C)Cc2c(cnn2-c2cccc(F)c2)C(NC(=O)CCc2cnccn2)C1 (stereo unspecified)	i	0.46
CC(=NCCc1c(C)[nH]c2ccc(OCc3ccccc3)cc12)C1=C(O)CC(c2ccccc2)CC1=O (stereo unspecified)	i	0.79
O=C(CNC(=O)c1ccc(Br)o1)NNC(=O)c1cccc(Cl)c1	i	2.7
CN(C(=O)c1cncc(Br)c1)c1c(N)n(Cc2ccccc2)c(=O)[nH]c1=O	i	1.8
COc1ccc(C(=O)NCCS(=O)(=O)NCc2ccccc2OC)cc1	i	0.94
Continued:
SMILES	KCNQ2 inh	KCNQ2 inh baseline
Nc1[nH]c(=O)ncc1F	i	-2.5
CCOC(=O)NC(Nc1sc2c(c1C(=O)OC)CCN(C)C2)(C(F)(F)F)C(F)(F)F	i	-0.56
O=C(COc1ccccc1[N+](=O)[O-])N1CCN(C(=O)c2ccco2)CC1	i	1.5
Cn1c(=O)oc2cc(S(=O)(=O)N3CCCC(C(=O)NCc4cccs4)C3)ccc21 (stereo unspecified)	i	-1.9
CC1(C)Cc2ccccc2-c2nc3n(c(=O)c21)CCS3	i	2.4
COc1ccc(CNc2ccc([N+](=O)[O-])cc2C)cc1	i	1.5
CN(C)C(=O)NC(O)C(Cl)Cl (stereo unspecified)	i	0.82
O=C1COc2ccc(N3C(=O)C=CC3=O)cc2N1	i	-0.01
CC1CN(C)C(C)c2c1oc1ccc([N+](=O)[O-])cc21 (stereo unspecified)	i	0.83
COc1ccccc1OCC(O)CN1C(=O)NC(C)(C)C1=O (stereo unspecified)	i	2.8
COc1cc(C(=O)N/N=C(\c2ccccc2)c2ccccn2)cc(OC)c1OC	i	0.34
COc1ccc(/C=C2\SC(=S)N(CC(=O)NC3CCS(=O)(=O)C3)C2=O)cc1 (stereo unspecified)	i	1.6
CCOC(=O)/C=C1\NC(=O)CS1	i	3.1
CC1CCCCC1NC(=O)c1cc2c(=O)n3ccccc3nc2n1C (stereo unspecified)	i	-0.05
CCCN1CCN(CCCNC(=O)c2cc3c(s2)-c2ccccc2OC3)CC1	i	-0.03

Compounds listed so far containing a tert-butyl group:
SMILES	KCNQ2 inh	KCNQ2 inh baseline
Cc1cc(C(=O)CSc2nn3c(=O)c(C(C)(C)C)nnc3s2)c(C)n1-c1ccc(F)cc1	i	1.5
CC(C)(C)N(NC(=O)Nc1ccccc1)C(=O)c1ccccc1	i	-0.1

(listing goes on)
SMILES	KCNQ2 inh	KCNQ2 inh baseline
COc1ccc(/C=C/c2cc(-c3ccc(C)cc3)o[n+]2C)cc1	i	-0.59
COc1ccc(OCCCC(=O)NCCc2ccc(OC)c(OC)c2)cc1	i	0.99
CCOc1c2ccc(C(=O)NCc3ccccc3OC)cc2nn1CC	i	-1.3
CC(=O)Nc1ccc(S(=O)(=O)N2CCN(c3cc(C(F)(F)F)ccn3)CC2)cc1	i	2.3
O=C(CCn1c(=S)[nH]c2ccccc2c1=O)NCCCN1CCOCC1	i	1.6
Cc1cc(C(=O)CSc2nnc(-c3cccnc3)n2-c2ccccc2F)c(C)n1C	i	-0.9
CCOc1ccc(CNC(=S)N/N=C\c2ccc([N+](=O)[O-])cc2)cc1	i	0.58
Cc1ccc(Cl)cc1N1CCN(C(=O)C(=O)N2CCCCC2)CC1	i	-0.02
N=C1SC(CC(=O)Nc2ccccc2[N+](=O)[O-])C(=O)N1c1ccccc1 (stereo unspecified)	i	-1.4
CCCS(=O)(=O)N1CCC(C(=O)NCCN2CCCC2)CC1	i	0.76
CCCN(CC(=O)Nc1ccccc1C)C(=O)Cc1coc2cc(C)ccc12	i	0.55
Cc1cc(-c2ccc(C)c(S(=O)(=O)NCCCN3CCN(c4ccccc4)CC3)c2)on1	i	-1.2
Cc1ccc(/C=C/C(=O)CCC(=O)O)cc1	i	-0.21
O=C(COc1ccccc1)Nc1ccc(NC(=O)c2ccco2)cc1	i	-1.4
CCSC1=C(C#N)C(c2ccccc2Cl)C(C(=O)c2cccs2)C(O)(C(F)(F)F)N1 (stereo unspecified)	i	2.5
